FLuc modulator: qHTS profiling assay for firefly luciferase inhibitor/activator using purifed enzyme and Km concentrations of substrates (counterscreen for miR-21 project). purified FLuc, Km substrates, luminescence inhibition. 360,000 compounds, 6.9% hits. Potency, µM (doses to about 57.5 µM), without a hit: top-dose activity change, negative = inhibition, hits mostly inhibitors. AID 588342, 2011. Luciferin 4-monooxygenase (Photinus pyralis), P08659;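 further: potency means the concentration at half of the fitted maximal effect; plate controls were vehicle for no effect and reference inhibitor for full effect; nearly all actives have a fitted effect of over 55% in size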
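Biochemical qHTS of compounds, final roughly 60 µM downward over six points, against 10 nM purified firefly luciferase using Km concentrations of substrates (10 uM D-luciferin, 10 uM ATP) in Tris acetate pH 7.5 buffer; luminescence output.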
NPC1 promoter act: qHTS Assay for NPC1 Promoter Activators. 320,000 compounds, 2.4% hits. Huh7 NPC1 promoter luciferase reporter, 24 h. AID 485313, 2010. Potency, µM (series often up to 9.22 µM), without a hit: top-dose activation, actives largely listed as activators;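 further: potency means the concentration at half of the fitted maximal effect; % of control where 0% means no effect; nearly all actives have a fitted effect of over 60% in size; reporter is driven by a mutant NPC1 promoter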
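Luminescence from an NPC1 promoter-driven luciferase reporter in stably transfected Huh7 cells was measured after 24 h compound treatment at 37 °C, followed by 10 min ambient incubation with luciferase detection reagent.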
RORg inh: qHTS for inhibitors of ROR gamma transcriptional activity. Nuclear receptor ROR-gamma (Mus musculus), P51450. Drosophila S2 Gal4-RORgamma UAS-luciferase reporter, 20 h. Potency, µM (highest dose often 53.6 µM), for the others: top-dose activity change, negative = inhibition, actives largely listed as inhibitors. 310,000 compounds, 5.4% hits; further: potency means the concentration at half of the fitted maximal effect; on the % scale 0 is the no-effect control and ±100 the full control effect; nearly all actives have a fitted effect of over 60% in size
Target sequence (P51450 whole entry, looked up, the tested form may be a part): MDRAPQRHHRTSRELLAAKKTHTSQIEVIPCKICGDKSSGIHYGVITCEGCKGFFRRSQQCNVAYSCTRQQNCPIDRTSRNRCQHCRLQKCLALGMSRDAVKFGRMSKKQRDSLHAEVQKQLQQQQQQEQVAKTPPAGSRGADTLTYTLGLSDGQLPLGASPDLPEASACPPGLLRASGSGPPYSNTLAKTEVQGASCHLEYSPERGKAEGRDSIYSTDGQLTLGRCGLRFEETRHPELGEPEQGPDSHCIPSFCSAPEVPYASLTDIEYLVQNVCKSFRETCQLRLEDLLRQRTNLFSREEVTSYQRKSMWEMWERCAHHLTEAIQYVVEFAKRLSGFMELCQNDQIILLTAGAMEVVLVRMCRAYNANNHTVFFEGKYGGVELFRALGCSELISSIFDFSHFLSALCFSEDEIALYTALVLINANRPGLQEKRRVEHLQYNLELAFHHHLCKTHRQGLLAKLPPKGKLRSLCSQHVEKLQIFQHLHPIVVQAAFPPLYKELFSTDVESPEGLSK
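Schneider cells (Drosophila), stable Gal4 DBD–ROR gamma + UAS-luc; 1 hr cmpd preincubation; Cu2+ induction 700 uM final; 20 hr ambient; luminescence.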
Menin-MLL TR inh: qHTS Assay for Inhibitors Targeting the Menin-MLL Interaction in MLL Related Leukemias: Competition With Texas Red Labeled MLL-derived Mutant Peptide. Menin + Texas Red MLL mutant peptide, fluorescence polarization. Potency, µM (series often up to 61.6 µM), inactives show top-dose FP activity change, negative = inhibition, most hits filed as inhibitors. 270,000 compounds, 0.23% hits. AID 1768, 2009; active means well fitted inhibition curve with a large enough effect in the polarisation, with a control signal flat, not every such curve was filed as active; inconclusive means small, poorly fitted or top-dose-only effect, or effect the other way, or a change in a side signal; inactive means no such curve, though single readings can be large or run the other way; the % refers to the polarisation; further: potency means the concentration at half of the fitted maximal effect; % of control where 0% means no effect; many of its hits are not listed in these tables
Target sequence (O00255 whole entry, looked up): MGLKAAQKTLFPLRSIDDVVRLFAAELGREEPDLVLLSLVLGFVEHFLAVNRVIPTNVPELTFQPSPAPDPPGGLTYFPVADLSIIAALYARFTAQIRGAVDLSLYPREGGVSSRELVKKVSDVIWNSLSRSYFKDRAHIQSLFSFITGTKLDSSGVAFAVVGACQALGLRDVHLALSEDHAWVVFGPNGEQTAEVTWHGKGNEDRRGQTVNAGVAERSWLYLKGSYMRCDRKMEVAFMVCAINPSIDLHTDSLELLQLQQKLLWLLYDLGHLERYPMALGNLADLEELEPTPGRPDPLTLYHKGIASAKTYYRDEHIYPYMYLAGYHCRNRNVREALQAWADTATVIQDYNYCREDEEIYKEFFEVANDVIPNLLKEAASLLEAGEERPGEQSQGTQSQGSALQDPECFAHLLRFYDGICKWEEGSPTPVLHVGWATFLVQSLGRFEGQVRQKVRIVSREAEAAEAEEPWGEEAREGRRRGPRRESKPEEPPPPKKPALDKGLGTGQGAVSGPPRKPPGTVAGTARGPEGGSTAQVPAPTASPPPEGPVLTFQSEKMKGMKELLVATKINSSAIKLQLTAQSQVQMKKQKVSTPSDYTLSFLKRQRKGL
Giardia killer: Small Molecules that selectively kill Giardia lamblia: qHTS; Giardia lamblia trophozoite viability; activity change, % at 7.66 µM, hits read low; 340,000 compounds, 0.15% hits; in the data active means activity change below about -80%; inconclusive means between about -30% and that limit;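 further: parasites exposed to compound for two days anaerobically before the ATP read; on the % scale 0 is the no-effect control and ±100 the full control effect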
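Giardia lamblia trophozoites (100 cells/well) were incubated with compounds for 48 h at 37 deg C under anaerobic conditions. Viability was read as ATP content by one-step luminescence after 15-30 min at room temperature.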
Rab9 prom act: qHTS Assay for Rab9 Promoter Activators. Huh7 Rab9 promoter-luciferase reporter, luminescence, 24 h. Potency, µM (doses to about 9.22 µM), without a hit: top-dose activation, negative = inhibition, most hits filed as activators. 320,000 compounds, 2.8% hits. AID 485297, 2010; further: potency means the concentration at half of the fitted maximal effect; % of control where 0% means no effect; nearly all actives have a fitted effect of over 60% in size
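Huh7 reporter line, Rab9 promoter upstream of luciferase. Compound exposure 24 h at 37 °C in reduced-serum medium with 10% FBS. Read-out: luminescence.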
p53 reactivation: qHTS assay for re-activators of p53 using a Luc reporter. AID 504706, 2011. 320,000 compounds, 0.063% hits. Potency, µM (doses to about 92.2 µM), for inactives: top-dose activity change, positive = activation, usual class: activators. H1299 p53-A138V BP100-luciferase reporter, luminescence, 24 h; further: potency means the concentration at half of the fitted maximal effect; % of control where 0% means no effect; nearly all actives have a fitted effect of over 45% in size
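p53-null H1299 cells stably carrying temperature-sensitive p53-A138V and a BP100-luciferase reporter were pinned with compounds (4-point, 1:5 series) and held 24 hrs at 37 deg C. Luminescence was read 10 min after detection reagent.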
BRCA1 expr act: qHTS Assay to Identify Small Molecule Activators of BRCA1 Expression. 380,000 compounds, 1.1% hits. MCF7-BRCA1-FFLuc reporter, luminescence, 48 h; response scale: scaled: vehicle 0%, 10 µM genistein 100%. Potency, µM (doses to about 46.1 µM), for the others: at the top dose activation, usual class: activators; further: potency means the concentration at half of the fitted maximal effect; nearly all actives have a fitted effect of over 80% in size; some results filed as inactive show a strong effect at the top dose
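MCF7-BRCA1-FFLuc, 2000 cells/well; 2 h attach, 37 °C/5% CO2; compound 48 h; luciferase substrate 15 min; luminescence end-point. Norm. to genistein 10 microM max activation and DMSO; concentration-response curves fitted.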
ELG1 genotox: qHTS screen for small molecules that induce genotoxicity in human embryonic kidney (HEK293T) cells expressing luciferase-tagged ELG1; HEK293T ELG1-luciferase reporter, luminescence, 16 h; Potency, µM (highest dose often 46 µM), for inactives: at the highest dose activity change, positive = activation, usual class: activators; 330,000 compounds, 1.3% hits; AID 504466, 2011; further: potency means the concentration at half of the fitted maximal effect; % of control where 0% means no effect; nearly all actives have a fitted effect of over 60% in size
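Cells (2,000/well) expressing the ELG1-luciferase fusion are dosed by pin tool and kept 16 hr at 37 °C, 5% CO2. Signal comes from ONE-Glo luciferase reagent after 30 min at room temperature.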
VP16 counter: VP16 counterscreen qHTS for inhibitors of ROR gamma transcriptional activity; Potency, µM (top dose mostly 53.6 µM), inactives show top-dose activity, negative = inhibition, usual class: inhibitors; AID 2546, 2010; Drosophila S2 Gal4-VP16 UAS-luciferase, luminescence, 20 h; 310,000 compounds, 3.5% hits;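 further: Gal4-VP16 expression switched on by copper sulfate through the metallothionein promoter; potency means the concentration at half of the fitted maximal effect; on the % scale 0 is the no-effect control and ±100 the full control effect; nearly all actives have a fitted effect of over 50% in size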
Starred values were filed as active, the others as inactive; ? = inconclusive; . = no result given; [ ] = dose if it differs, or a comment. Unless noted, the call rests on the fitted dose curve; in most records, active means well fitted curve in the direction sought with a large enough effect; inconclusive means small, poorly fitted or top-dose-only effect, or another doubt; inactive means no such curve, though single readings can be large; an effect the other way counts as inactive or inconclusive.

[1] CC(=O)c1ccccc1C(=O)NCc1cccnc1
[2] O=C(NNS(=O)(=O)c1ccc(Br)cc1)c1sccc1-n1cccc1
[3] COc1ccc(NC(=O)CCCCCN2C(=O)c3ccccc3C2=O)c(OC)c1
[4] CC(CC(=O)O)n1nnc2ccccc21 (stereo not drawn)
[5] CCOC(=O)c1[nH]c(C)c(C(=O)OCC(=O)N2CCCCC2C)c1C (stereo not drawn)
Compound,1,2,3,4,5
ELG1 genotox,4%,-2%,-4%,1%,2%
Menin-MLL TR inh,-13%,8%,-4%,.,?
Giardia killer,7,?,0,16,1
BRCA1 expr act,-13%,8%,-2%,0%,1%
VP16 counter,-2%,2%,-1%,0%,-4%
RORg inh,11%,12%,28%,-23%,-3%
NPC1 promoter act,1%,-1%,2%,0%,-3%
p53 reactivation,-7%,3%,.,-1%,-7%
FLuc modulator,6%,?,-2%,-4%,3%
Rab9 prom act,1%,0%,7%,-7%,-2%

Reformatted with values under each structure: part of the list above.
Order of results: ELG1 genotox | Menin-MLL TR inh | Giardia killer | BRCA1 expr act | VP16 counter | RORg inh | NPC1 promoter act | p53 reactivation | FLuc modulator | Rab9 prom act
#2 O=C(NNS(=O)(=O)c1ccc(Br)cc1)c1sccc1-n1cccc1
    -2% | 8% | ? | 8% | 2% | 12% | -1% | 3% | ? | 0%
#3 COc1ccc(NC(=O)CCCCCN2C(=O)c3ccccc3C2=O)c(OC)c1
    -4% | -4% | 0 | -2% | -1% | 28% | 2% | . | -2% | 7%
#4 CC(CC(=O)O)n1nnc2ccccc21 (stereo not drawn)
    1% | . | 16 | 0% | 0% | -23% | 0% | -1% | -4% | -7%

Next section
[6] CC1CCN(C(=O)c2ccc(S(=O)(=O)Cc3cccc(F)c3)c([N+](=O)[O-])c2)CC1
[7] COc1ccc(C(=O)N/C(=C\c2cn(C)c3ccccc23)C(=O)OCCN(C)C)cc1
[8] CC1(C)CC(=O)C2=C(C1)N(Cc1ccco1)C(=O)C2(NC(=O)c1ccc(Cl)cc1Cl)C(F)(F)F (stereo not drawn)
[9] CSc1nc(SCC(=O)NCc2ccco2)c2c3c(sc2n1)COC(C)(C)C3
[10] CCOC(=O)c1c(C)n(C)c2cc(Br)c(C(=O)OC)cc12
Compound,6,7,8,9,10
ELG1 genotox,-1%,0%,-5%,-1%,5%
Menin-MLL TR inh,-21%,.,?,-19%,9%
Giardia killer,-1,6,3,12,9
BRCA1 expr act,-44%,-57%,-16%,-83%,-1%
VP16 counter,-9%,-4%,3%,1%,-3%
RORg inh,-8%,-11%,-17%,1%,-11%
NPC1 promoter act,0%,2%,-1%,-12%,-4%
p53 reactivation,-1%,-4%,5%,6%,-2%
FLuc modulator,1%,3%,0%,-13%,3%
Rab9 prom act,-2%,8%,-2%,-2%,-10%

[11] OCC1(Cc2cccc(Cl)c2)CCCN(Cc2cnn(-c3ccccc3)c2)C1 (stereo not drawn)
[12] CC(=O)c1cccc(NC(=O)C2(c3ccccc3)CC2(Cl)Cl)c1 (stereo not drawn)
[13] S=C(NCc1ccccn1)Nc1ccccc1Cl
[14] O=C(C1=C[C@H](c2ccc(Br)cc2)C[C@H](OCCCCO)O1)N1CCN(Cc2ccccc2)CC1
[15] COc1ccc2c(c1)c1nc(SCC(C)C)n(CCO)c(=O)c1n2C
Compound,11,12,13,14,15
ELG1 genotox,-7%,-5%,15%,-5%,4%
Menin-MLL TR inh,?,19%,-12%,?,-4%
Giardia killer,4,6,3,-1,4
BRCA1 expr act,2%,-13%,50%,-6%,-6%
VP16 counter,-1%,-12%,?,-22%,1%
RORg inh,-27%,21%,10µM*,?,-10%
NPC1 promoter act,1%,0%,13%,-4%,-2%
p53 reactivation,-4%,-4%,3%,-2%,0%
FLuc modulator,2%,2%,-6%,0%,1%
Rab9 prom act,-4%,5%,?,2%,9%

[16] CCCc1nc(NCC2CCCO2)c2nnn(Cc3ccccc3)c2n1 (stereo not drawn)
[17] Cc1cc(OCCNCCO)cc(C)c1Cl
[18] CN1C(=S)SC(N(O)C=C2C=CC(=O)C=C2)C1(C)C (stereo not drawn)
[19] Cn1c(=O)n(Cc2ccco2)c(=N)c2c3c(sc21)CCC3
[20] CCCNC(=O)Nc1nnc(C2CC2)s1
Compound,16,17,18,19,20
ELG1 genotox,-4%,-1%,1%,.,13%
Menin-MLL TR inh,-10%,.,4%,8%,-10%
Giardia killer,3,14,?,4,?
BRCA1 expr act,-20%,0%,11%,-4%,22%
VP16 counter,4%,3%,11%,7%,-19%
RORg inh,?,-18%,17%,-8%,-3%
NPC1 promoter act,-2%,1%,-4%,.,3%
p53 reactivation,-14%,3%,-3%,.,1%
FLuc modulator,0%,0%,0%,5%,0%
Rab9 prom act,1%,2%,-7%,.,19%

[21] CN(C(=O)CCc1nnc(CCCCc2ccccc2)o1)C1CCOCC1
[22] CC1(c2ccccc2)NC(=O)N(CC(=O)Nc2ccc3c(c2)OCO3)C1=O (stereo not drawn)
[23] COC(=O)NNC(=O)Cc1cccc2ccccc12
[24] COC(=O)C1C(=O)c2c([nH]c(C(=O)OC3CCCCC3)c2C)CC1C (stereo not drawn)
[25] COc1cc(CNc2cc(C)ccc2C)cc(OC)c1OC
Compound,21,22,23,24,25
ELG1 genotox,0%,-1%,3%,?,-11%
Menin-MLL TR inh,0%,19%,-6%,0%,-16%
Giardia killer,1,-4,4,-3,-2
BRCA1 expr act,28%,-14%,11%,5µM*,-8%
VP16 counter,3%,-6%,-11%,1%,-2%
RORg inh,32%,12%,-3%,1%,13%
NPC1 promoter act,0%,1%,1%,2.8µM*,0%
p53 reactivation,-2%,-3%,-3%,?,-1%
FLuc modulator,-4%,1%,-11%,1.7µM*,1%
Rab9 prom act,1%,1%,-6%,2.8µM*,-1%

[26] COC(=O)c1ccc(Cl)c(NC(=O)NC23CC4CC(CC(C4)C2)C3)c1
[27] CC1(C)CC(=O)C(N=Nc2cccc(S(=O)(=O)N3CCOCC3)c2)=C(O)C1
[28] COc1ccccc1OCc1ccc(C(=O)N(C)C)o1
[29] Cc1cnc(C(=O)Nc2ccccc2-n2cccc2)cn1
[30] Cc1cccnc1Sc1c([N+](=O)[O-])ncn1C
Compound,26,27,28,29,30
ELG1 genotox,-4%,-1%,18%,2%,-3%
Menin-MLL TR inh,-2%,.,-8%,?,-16%
Giardia killer,2,-13,26,0,7
BRCA1 expr act,-79%,0%,93%,-37%,3%
VP16 counter,-12%,-7%,-7%,.,14%
RORg inh,-6%,6%,-11%,-19%[0.365 µM],-9%
NPC1 promoter act,3%,-5%,2%,0%,-27%
p53 reactivation,2%,4%,1%,-3%,3%
FLuc modulator,-11%,-2%,?,6%,-2%
Rab9 prom act,1%,1%,-8%,-8%,-1%

[31] CC(C)(C)NC(=O)C(c1ccncc1)N(C(=O)Cn1nnc(-c2ccc(F)cc2)n1)c1ccccc1F (stereo not drawn)
[32] O=C(Nc1nc(-c2ccccc2Cl)cs1)c1cccnc1
[33] O=C(NCCCn1ccnc1)/C(=C\c1ccco1)NC(=O)c1ccco1
[34] CC(C(=O)Nc1ccc(Cl)cc1)c1ncc(C(F)(F)F)cc1Cl (stereo not drawn)
[35] COC(=O)c1ccc(C(NC(=O)OCc2ccccc2)/C(=C/[C@@H](C)C(=O)NCc2ccc(C)o2)c2cccnc2)cc1 (stereo partly drawn)
Compound,31,32,33,34,35
ELG1 genotox,3%,12%,2%,-11%,.
Menin-MLL TR inh,9%,-21%,0%,-4%,3%
Giardia killer,10,7,-5,-2,.
BRCA1 expr act,9%,-33%,-4%,-1%,.
VP16 counter,-27%,5%,-8%,?,-4%
RORg inh,13µM*,18%,-1%,?,7%
NPC1 promoter act,-2%,1%,-6%,2%,.
p53 reactivation,2%,-6%,-4%,-8%,.
FLuc modulator,-17%,-14%,1%,-2%,.
Rab9 prom act,1%,2%,2%,2%,.

[36] CC(C)(C)c1ccc(OCCNC(=O)c2ncn[nH]2)cc1
[37] Cc1cccc2c(C(=O)O)c3c(nc12)CCCCC3
[38] CN1CCN(C(=O)CSc2cc(=O)n(C)c3ccccc23)CC1
[39] CCCN1C2CCCC1CC(NC(=O)C1CCCCC1)C2 (stereo not drawn)
Compound,36,37,38,39
ELG1 genotox,11%,1%,?,-1%
Menin-MLL TR inh,6%,5%,-7%,-3%
Giardia killer,7,7,2,-14
BRCA1 expr act,18%,-10%,-10%,-2%
VP16 counter,-8%,8%,5%,-2%
RORg inh,?,-20%,-28%,-29%
NPC1 promoter act,-2%,9%,-6%,-5%
p53 reactivation,0%,-3%,-1%,4%
FLuc modulator,?,3%,-2%,2%
Rab9 prom act,0%,1%,2%,-7%

Some of the compounds tested, so the mix of outcomes need not match the whole.
